T cruzi inh = blocks replication of Trypanosoma cruzi; inhibition, % (no concentration beside the values); T. cruzi beta-gal in NIH3T3, luminescence, 90 h; 300,000 tested, 1.4% active;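 active = mean inhibition across valid replicates above about 55%, limit read from the data; inconclusive = mean below that limit but half or more replicates reach it; inactive = mean below it, under half of replicates reach it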;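 note: signal also drops with host cell toxicity which is not excluded here; 0% = plate median of DMSO wells and 100% = zero luminescence signal; higher percent means less beta-gal luminescence so fewer parasites; stock transfer was 50 nL into about 50 µL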
Calb FLC = affects C. albicans growth with fluconazole. C. albicans CaCi-2 (fluconazole-resistant clinical isolate) + fluconazole, Alamar Blue growth, 48 h. growth inhibition, % (no concentration beside the values). 300,000 tested, 0.57% active. AID 1979;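 active = most replicates above 75%; inconclusive = exactly half above 75%; inactive = most below 75%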;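 note: all wells also contain fluconazole at 8 µg/ml as a sub-toxic cotreatment; 0% = median of DMSO wells and 100% = median of geldanamycin control wells; wells of about 8 µL received 7.5 nL stock; the first replicate is given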
Beta apoptosis = beta cell apoptosis inhibition | INS-1E cytokine-induced death, ATP luminescence, 48 h; percent of positive-control rescue, neutral wells zero | protection from apoptosis, % (concentration not given with the values) | 300,000 tested, 0.8% active;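 active = all replicates at 75% or more, or half of them and the mean; inconclusive = half reach 75% but not the mean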;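 note: 0% = cytokine-treated negative control wells and 100% = positive control rescue; higher means more ATP so stronger rescue from cytokine killing; wells of about 40 µL received 100 nL stock; the first replicate is given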
UCH37 DUB inh = inhibitors of human deubiquitinating enzyme UCH37; 330,000 tested, 0.33% active; Q9Y5K5; AID 588478; inhibition, % (no concentration beside the values); purified proteasome/UCH37, Ub-AMC cleavage fluorescence;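 active = mean of two replicates above 20%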;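 note: 0% = compound-free wells with enzyme and 100% = wells lacking proteasome; stock transfer was 100 nL into about 20 µL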
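assay system = human UCH37 enzyme supplied as purified proteasome complex | amount = proteasome at 0.15 nM in the dispensed enzyme solution | schedule = 30 min compound-proteasome preincubation then 25 min substrate reaction, room temperature | measured by = fluorescence, ex 355 nm, em 460 nm | benchmarks = no-proteasome wells (full inhibition) and compound-free wells (no inhibition)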
LANA-H2B inh = blocks KSHV LANA binding to histone H2A/H2B; Q9QR71; cell-free LANA-H2A/H2B peptide, fluorescence polarization; inhibition, % (concentration not given with the values); 320,000 tested, 0.6% active; AID 2629; in the data active = inhibition mostly above about 10%, no sharp cut-off; inactive = mostly below about 6.7%;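 note: stock transfer was 7.5 nL into about 10 µL; 0% = median of vehicle wells and 100% = median of positive control wells; one replicate is shown; the record names a cut of 25% in any replicate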
Target sequence (Q9QR71 whole entry, looked up): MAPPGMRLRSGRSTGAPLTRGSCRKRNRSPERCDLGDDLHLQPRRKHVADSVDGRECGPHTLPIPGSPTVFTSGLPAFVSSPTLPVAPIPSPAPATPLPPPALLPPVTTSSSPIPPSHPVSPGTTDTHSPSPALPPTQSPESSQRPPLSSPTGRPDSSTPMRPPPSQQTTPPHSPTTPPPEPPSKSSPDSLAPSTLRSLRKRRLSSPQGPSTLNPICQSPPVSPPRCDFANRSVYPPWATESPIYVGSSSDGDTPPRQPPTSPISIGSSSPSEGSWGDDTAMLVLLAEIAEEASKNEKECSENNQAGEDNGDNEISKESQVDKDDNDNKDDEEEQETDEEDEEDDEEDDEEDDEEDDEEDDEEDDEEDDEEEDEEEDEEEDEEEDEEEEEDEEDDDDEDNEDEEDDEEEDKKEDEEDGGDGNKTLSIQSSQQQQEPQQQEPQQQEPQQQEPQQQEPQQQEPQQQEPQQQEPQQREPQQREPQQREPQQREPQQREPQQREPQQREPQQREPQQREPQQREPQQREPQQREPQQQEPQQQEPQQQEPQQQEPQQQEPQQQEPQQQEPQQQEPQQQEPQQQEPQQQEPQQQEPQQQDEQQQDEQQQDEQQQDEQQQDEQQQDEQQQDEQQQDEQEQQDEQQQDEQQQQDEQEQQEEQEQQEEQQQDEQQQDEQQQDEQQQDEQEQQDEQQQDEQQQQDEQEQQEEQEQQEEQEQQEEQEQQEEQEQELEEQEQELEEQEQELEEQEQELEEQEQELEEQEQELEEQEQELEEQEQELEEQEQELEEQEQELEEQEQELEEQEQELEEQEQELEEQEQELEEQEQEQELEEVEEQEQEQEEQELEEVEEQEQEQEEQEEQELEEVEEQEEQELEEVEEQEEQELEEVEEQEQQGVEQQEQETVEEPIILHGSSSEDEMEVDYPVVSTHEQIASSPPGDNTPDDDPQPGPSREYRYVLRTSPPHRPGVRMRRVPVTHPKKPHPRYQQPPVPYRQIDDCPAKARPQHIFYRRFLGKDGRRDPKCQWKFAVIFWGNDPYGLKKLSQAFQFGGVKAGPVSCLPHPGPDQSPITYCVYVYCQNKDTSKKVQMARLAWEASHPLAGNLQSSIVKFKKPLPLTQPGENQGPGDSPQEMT
Bfl-1 A1 inh = inhibitors of the anti-apoptotic protein A1, read as caspase activation | MEF A1-2A-BIM cells, Caspase-Glo 3/7 luminescence, 3 h; percent of clofoctol response, vehicle zero | caspase activation, % (no concentration beside the values) | 330,000 tested, 0.066% active;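 active = over half of replicate activation scores above 10%, or exactly half above 10 with the replicate mean above 10; inconclusive = replicate mean below 10 yet half the replicates above 10; inactive = over half of replicates below 10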;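 note: wells of about 30 µL received 50 nL stock; many hits fall short of the cut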
B2AR ag = agonists of human beta-2 adrenergic receptor inducing internalization | P07550 | Am2.2-beta2AR cells, FAP receptor internalization, flow cytometry; reference of the scale not given here | response, % (no concentration beside the values) | 340,000 tested, 0.43% active;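 active = response above a set limit, near 3 SD of response in nonfluorescent compounds, cut at about 42% in these data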;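 note: stock transfer was 100 nL into about 11 µL; a reference agonist was the positive control; negative values mostly stem from fluorescent compounds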
RanGTP-Imp inh = disruptors of Ran-importin-beta complex formation – biochemical, FRET, CFP-Ran, YFP-importin-beta, homogeneous, primary screen. AID 2216. 300,000 tested, 1.1% active. cell-free CFP-Ran/YFP-importin-beta FRET ratio. inhibition, % (test concentration not listed);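 active = most replicates above 15%; inconclusive = exactly half above 15%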;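 note: 0% = DMSO wells and 100% = Ran loaded with GDP instead of GTP; wells of about 40 µL received 100 nL stock; the first replicate is given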
* = called active by the depositor; ? = inconclusive; . = not tested or not shown.

Fields – T cruzi inh	Calb FLC	Beta apoptosis	UCH37 DUB inh	LANA-H2B inh	Bfl-1 A1 inh	B2AR ag	RanGTP-Imp inh
> O=C(NCc1ccccc1)c1ccc2c(c1)C(=O)N(CC1CCCO1)C2=O (stereo not given)
→ 5	0	-3	2.1	0.9	0.9	-4	1.6
> Fc1ccc(N2CCN(c3nnnn3-c3ccccc3)CC2)cc1
→ -5	-4	-2	-0.8	-7.5	0.2	-3	?
> CCOc1ccc2nc(COC(=O)c3ccncc3)c(C(=O)c3ccccc3)[n+]([O-])c2c1
→ -10	13	1	-1.7	-1.1	-0.3	-9	3.8
> CC(=O)Nc1cccc(-c2nc3ccccc3[nH]2)c1
→ -3	-3	4	-5.1	0.1	0.3	-23	-0.4
> CCN(CC)c1ccc(/C=C2/SC(=O)N(C(C)C)C2=O)o1
→ 38	10	.	5.8	.	.	-200	6.3
> Clc1ccc(-c2ccc(CNCc3ccccn3)o2)cc1
→ 0	-5	8	3.7	0.0	-1.5	0	5.9
> c1ccc(CN2CCN(C3=Nc4cccc5cccc3c45)CC2)cc1
→ 34	3	.	4.4	.	.	9	-7.2
> COc1ccc(NC(=O)NC(C)(C(F)(F)F)C(F)(F)F)cc1
→ 6	-1	1	0.4	.	0.1	3	-0.6
> COc1ccc(-n2c(C)cc(/C=N/Nc3nc(N4CCOCC4)nc(N4CCOCC4)n3)c2C)cc1
→ 34	8	.	.	0.8	-0.9	24	-6.4
> C#CCOCCOCCOCCNc1nc(N2CCN(C(=O)[C@H](CCCCN)n3cc([C@@H](N)[C@H](C)CC)nn3)CC2)nc(N2CCN(C(=O)[C@H](CCC(=O)O)n3cc([C@@H](N)CCCCN)nn3)CC2)n1
→ .	.	-3	3.0	-8.3	0.3	0	.
> CCOc1ccc(-n2cc(C(=O)N3CCC(C)CC3)c3cc(OC)c(OC)cc3c2=O)cc1
→ -1	13	12	0.7	-2.6	0.1	-6	?
> CCCCn1c2nc3ccccc3nc2c2c(=O)n(CCC(C)C)cnc21
→ 9	-24	.	-67	2.8	0.6	-11	?
> CCN(CC)CCCNC(=O)c1ccc(Cl)c(S(=O)(=O)Nc2ccccc2OC)c1
→ 9	-8	-7	0.4	0.0	0.0	7	4.2
> COC(=O)C1C(=O)C=C(Nc2ccc(F)cc2F)CC1c1ccc(OC)cc1 (stereo not given)
→ -8	12	5	7.3	0.3	-0.2	-3	-2.3
> CC1(C)CC2CC(C)(CN2CC(=O)C(C#N)c2ccccc2)C1 (stereo not given)
→ 0	1	.	4.3	8.3	-0.2	7	-0.3
> CCCNC(=O)C12CCC(C)(C(=O)O1)C2(C)C (stereo not given)
→ -11	-2	-2	1.5	5.8	0.4	-5	-2.4
> Nc1nnc(CC2=CCCCC2)s1
→ -10	29	-10	3.5	3.6	0.8	17	-1.4
> Cc1nc(N2CCOCC2)c2c(C)c(C(=O)Nc3ccccc3C(F)(F)F)sc2n1
→ 2	-6	11	0.5	4.4	-0.1	0	-2.0
> O=C(COC(=O)C1CCN(S(=O)(=O)c2ccc3c(c2)OCCO3)CC1)NC1CCS(=O)(=O)C1 (stereo not given)
→ 4	14	-7	0.3	-10	-0.8	-1	5.7
> CCOC(=O)Cn1c(=NC(=O)c2cccs2)sc2cc(C(=O)OC)ccc21
→ 0	-2	-2	-87	0.8	-1.1	-5	?
> Brc1ccccc1C1=Nn2c(nnc2-c2ccco2)SC1
→ 1	-3	17	6.6	0.9	0.0	-1	-6.4
> O=C1N[C@@H](Cc2ccccc2)C(=O)N1CCN1CCOCC1
→ -9	3	-3	0.5	0.6	0.7	9	?
> Cc1nn(-c2ccc(N3CCOCC3)nn2)c(C)c1CCC(=O)N1CCN(C)CC1
→ -8	-3	-12	-0.8	0.4	0.1	-4	-2.0
> CCCC1=C(C(=O)OCC)C(c2cc(Cl)cc(OC)c2OCC(=O)OCC)NC(=O)N1 (stereo not given)
→ .	-12	0	2.1	-2.9	0.0	1	.
> Nc1ccc(Nc2nc3ccccc3[nH]2)cc1
→ -5	-1	.	3.3	-0.3	0.0	-3	3.5
> CCCc1c(C(=O)NNc2cccc(Cl)c2)cnn1-c1ccccc1
→ 18	-14	-5	2.2	6.2	0.9	2	-0.5
> CCN(CCn1cccn1)C(=O)C1CCC(=O)N(CCN2CCOCC2)C1 (stereo not given)
→ -8	4	0	1.2	1.1	-0.5	-8	4.7
> Cc1cc(C)n(-c2nc3c(c(=O)[nH]c(=O)n3C)n2CC(C)C)n1
→ .	-4	-6	0.6	-3.3	2.1	-10	-3.1
> COc1ccccc1/C=C1/C(=O)ON=C1C
→ -8	5	-1	-0.7	1.7	-1.6	14	0.9
> Cc1ccccc1/C=c1\s/c(=C\C(=O)C(C)(C)C)[nH]c1=O
→ 12	4	22	.	0.1	-0.6	3	-1.5
> Cc1ccccc1OCCOC(=O)c1nc2nccc(C)n2n1
→ -7	3	-9	-0.5	0.0	0.0	31	-0.3
> O=C(O)c1cccc(-n2c(/C=C/c3ccc([N+](=O)[O-])cc3)nc3ccccc3c2=O)c1
→ -3	13	-4	15	1.3	0.7	5	-2.5
> Cc1ccc(Nc2nc(N)nc(CN3CCCCCC3)n2)c(C)c1
→ 8	-7	.	1.2	-1.3	0.8	-3	-2.0
> CC(NCC(O)c1ccc([N+](=O)[O-])cc1)C12CC3CC(CC(C3)C1)C2 (stereo not given)
→ 25	-19	6	1.6	2.8	1.0	-5	5.8
> CCOC(=O)c1ccc(-n2c(N)c(C(=O)NCc3ccco3)sc2=S)cc1
→ 4	10	-7	3.5	-4.2	-0.6	.	2.7
> COc1ccc(Nc2cc(=O)oc3ccccc23)cc1
→ -64	16	10	-201	-0.5	0.5	3	2.7
> O=c1/c(=C\c2ccc(O)cc2)sc2n1C(c1ccccc1)C(c1ccccc1)=NN=2 (stereo not given)
→ 15	-3	13	.	-2.8	0.5	-6	13
> Cc1ccc(CNS(=O)(=O)c2ccc3c(c2)CCN3C(=O)CCCC(=O)O)cc1
→ -9	4	-8	1.7	-2.4	0.1	2	-3.2
> O=C(NC1CCCC1)c1sc(=S)n2c1[nH]c(=O)c1ccccc12
→ 11	20	6	17	1.4	-0.1	18	-2.1
> O=C(NNC(=O)c1ccc2ccccc2c1O)c1cccs1
→ -6	4	3	-0.1	-2.9	-3.8	3	0.5
> NC(=O)c1cc([N+](=O)[O-])ccc1NCc1cnccn1
→ .	.	1	3.9	-1.5	0.6	-5	.
> COc1cccc(NC(=O)CN(C)C(=O)[C@@H]2CCCN2C(=O)c2cccs2)c1
→ .	.	-8	.	-1.8	0.3	6	.
> CCOC(=O)c1cnc2c(C(=O)OC)cccc2c1NCc1ccco1
→ .	10	10	-16	1.6	0.2	-19	5.4
> C=CCNc1sc(C(=O)C2CC2)c(N)c1C#N
→ .	.	3	12	0.5	0.3	-2	.
> CC1(C)CC(=O)c2cc(OCC(=O)NCCCN3CCN(c4ccc(F)cc4)CC3)ccc2O1
→ 7	-16	-7	-196	-1.1	0.1	-6	8.1
> C=CCNc1nc(C(=O)OCC(=O)c2ccccc2)cs1
→ -8	7	0	-0.1	1.6	1.2	4	-1.4
> Cc1ccc(Nc2ncnc3ccccc23)cc1
→ -8	-18	11	1.0	1.1	0.1	4	.
> CCn1ncc(C(=O)Nc2cc(C)on2)c1C
→ .	20	-5	4.5	-2.1	0.4	-6	5.2
> NNC(=O)Cn1cnc2ccccc21
→ -8	5	-2	0.3	2.2	0.2	0	-2.4
> Cc1ccc2nc(N3CCN(C(=O)CCC(=O)O)CC3)nc(-c3ccccc3)c2c1
→ 20	-2	-4	-145	0.0	-0.4	7	30*
> CCc1ccc(-c2nc(SCC(=O)c3c(N)n(C4CC4)c(=O)[nH]c3=O)n[nH]2)cc1
→ .	.	-3	-1.2	-1.0	0.1	14	.
> CCCNC(=O)CN(C1CCCCC1)S(C)(=O)=O
→ -11	11	-6	2.5	-1.0	0.1	-3	2.1
> CC1CCc2c(sc3ncnc(N4CCOCC4)c23)C1 (stereo not given)
→ -13	88*	0	-0.1	4.5	0.4	1	4.8
> COc1ccc(NC(=O)c2cc(S(=O)(=O)N3CCOCC3)cn2C)cc1Cl
→ -3	4	-6	1.6	1.3	-0.2	-2	-1.3
> Cc1ccc(OCC(O)Cn2c(N)nc3c2c(=O)n(C)c(=O)n3C)cc1 (stereo not given)
→ -8	-13	-3	0.8	-4.1	0.2	1	5.0
> CNc1nnc(CSc2nc3ccccc3s2)s1
→ -5	1	-11	-2.9	0.6	0.1	14	0.4
> CCCc1cc2c(cc1NC(=O)c1ccccc1Cl)OCO2
→ 2	-5	-2	2.5	0.7	0.1	2	3.0
> Cc1ccc(NC(=O)C2C3C=CC4(CN(Cc5cccnc5)C(=O)C24)O3)cc1F (stereo not given)
→ -17	-7	-8	-1.5	-1.5	-0.4	7	1.2
> O=C(c1ccco1)N1CCN(C(=O)c2ccc(CS(=O)c3ccc(Cl)cc3)o2)CC1 (stereo not given)
→ 3	-15	-5	-2.3	-5.5	1.2	-14	3.7
> O=C(Nc1cccc(C(F)(F)F)c1)c1cccnc1
→ -12	117*	-2	2.4	4.6	-0.5	-2	.

Going on with the list.
Fields – T cruzi inh	Calb FLC	Beta apoptosis	UCH37 DUB inh	LANA-H2B inh	Bfl-1 A1 inh	B2AR ag	RanGTP-Imp inh
> CCN(CC)C(=O)c1cc2sc3ccccc3c2s1
→ 16	0	-5	0.3	0.1	-1.4	7	1.0
> COc1ccc(O)c(C2NC(CC(C)C)(C(=O)O)C3C(=O)N(Cc4ccccc4)C(=O)C23)c1 (stereo not given)
→ -10	4	-3	1.4	-2.7	0.7	9	-1.3
> COc1ccc(COC[C@H](C)[C@H](O)[C@@H](C)[C@H]2OC(=O)[C@@H]2C)cc1
→ -4	3	-8	1.0	-0.7	0.1	-3	1.2
> CCCCOC(=O)N1CCOCCOCCOCCOCC1
→ 21	2	0	1.4	4.2	-0.2	-3	5.4
> CCN(CC)S(=O)(=O)c1ccc(C(=O)Nc2nnc(-c3ccco3)o2)cc1
→ -17	30	6	5.0	-0.6	0.6	-1	-5.9
> O=C(Cn1nnc(-c2cccs2)n1)NCc1ccccc1
→ -6	39	-18	0.6	0.8	-0.4	0	0.9
> O=C(N/N=C/c1ccc(N2CCCC2)c([N+](=O)[O-])c1)c1cccnc1
→ -15	7	-7	.	-0.7	-0.8	-15	?
> O=C(Nc1ccccc1C(F)(F)F)NC1CCCCCCC1
→ -17	-15	3	-1.0	0.8	0.5	0	0.5
> CN(C)CCNC(=O)c1onc(CSc2ccncc2)c1C(=O)NCCN(C)C
→ -11	-8	-2	-1.4	-0.4	0.4	-3	-0.4
> O=C(O)CC1(CC(=O)NCc2ccccn2)CCCCC1
→ -5	0	3	2.2	2.1	-0.2	-8	4.1
> Cc1cccc(Cc2cnc(NC(=O)c3ccc(C)o3)s2)c1
→ -33	1	-3	0.0	-2.4	1.4	-9	0.7
> CC(NC(=O)c1ccc2c(c1)OCCO2)c1ccc(S(N)(=O)=O)cc1 (stereo not given)
→ -7	3	1	6.2	-2.0	0.6	0	-0.6

Not a hit list, and some 4.3% of all compounds hit somewhere here.
